# Cruzain inh Det: inhibitors of Trypanosoma cruzi cruzain with detergent; Potency, µM, inactives show max response, negative = inhibition, actives largely listed as inhibitors; 200,000 tested, 0.43% active; P25779; AID 1478; purified cruzain, Z-FR-AMC fluorescence, 0.01% Triton;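 further: plate controls were neutral wells for no effect and buffer without enzyme for full effect; nearly all actives have a fitted effect of over 40% in size; top concentration of the series not given in the record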
# Target sequence (P25779 123-467 limits assumed): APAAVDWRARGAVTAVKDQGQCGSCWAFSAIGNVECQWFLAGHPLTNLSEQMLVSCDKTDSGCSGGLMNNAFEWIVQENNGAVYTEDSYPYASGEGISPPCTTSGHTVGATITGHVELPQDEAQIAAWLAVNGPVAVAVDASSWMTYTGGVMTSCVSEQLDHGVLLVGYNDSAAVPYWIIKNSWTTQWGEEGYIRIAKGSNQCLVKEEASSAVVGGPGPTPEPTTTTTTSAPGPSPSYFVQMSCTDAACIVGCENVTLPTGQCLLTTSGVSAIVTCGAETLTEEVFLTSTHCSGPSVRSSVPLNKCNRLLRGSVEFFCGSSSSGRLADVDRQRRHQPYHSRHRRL
#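 Detergent-containing run (0.01% Triton X-100) in acetate buffer pH 5.5 with 5 mM DTT: enzyme at 1.5 nM final, 15 min compound preincubation at room temperature, then 2 uM Z-FR-AMC substrate. Activity taken as 60 s fluorescence increase at 360/450 nm.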
# Lassa entry inh: blocks Lassa virus binding to or entry into cells | 300,000 tested, 1.2% active | Lassa virus pseudotype entry inhibition, cell reporter; control for the full effect not named in the record | Potency, µM (top dose mostly 37.9 µM), for inactives: top-dose activity change, negative = inhibition, most hits filed as inhibitors; active means well fitted inhibition curve with a large enough effect; inconclusive means small, poorly fitted or top-dose-only effect, or effect the other way; inactive means flat fitted curve, though single readings scatter; tested in HEK293 cells; further: on the % scale 0 is the no-effect control and ±100 the full control effect; nearly all actives have a fitted effect of over 50% in size; luciferase read-out
# SARS PLP yeast: blocks SARS-CoV papain-like protease in a yeast assay. S. cerevisiae expressing SARS-CoV PLpro, growth rescue; control for the full effect not named in the record. Potency, µM (doses to about 32.9 µM), inactives show at the highest dose activity, positive = growth rescue. 330,000 tested, 0.19% active; active means well fitted rising curve with a large enough effect; inconclusive means small, poorly fitted or top-dose-only effect; inactive means no such curve, though single readings can be large or run the other way; further: 0% is about no effect; nearly all actives have a fitted effect of over 55% in size; growth read by luminescence after 48 h
# MARV entry inh: blocks Marburg virus binding to or entry into cells; Marburg virus pseudotyped entry inhibition, cell reporter; control for the full effect not named in the record; about a third of the inactives were read at about 46 µM; Potency, µM (titrated, usually from 37.8 µM), inactives show at the top dose activity change, negative = inhibition, most hits filed as inhibitors; 300,000 tested, 1.8% active; AID 540276; active = well fitted inhibition curve with a large enough effect; inconclusive = small, poorly fitted or top-dose-only effect, or effect the other way; inactive = flat fitted curve, though single readings scatter; tested in HEK293 cells; about a fifth of its hits are not listed in these tables; further: on the % scale 0 is the no-effect control and ±100 the full control effect; luciferase read-out
# StopGo reporter: FMDV 2A StopGo reporter, luciferase signal; Potency, µM (highest dose often 57.9 µM), for inactives: at the highest dose signal change, negative = less light; 410,000 tested, 1.2% active; AID 1159524; human cells with a luciferase reporter of 2A StopGo recoding; control for the full effect not named in the record; active = well fitted falling curve with a large enough effect; inconclusive = small, poorly fitted or top-dose-only effect; inactive = no such curve, though single readings can be large or run the other way; tested in HEK293T cells; further: on the % scale 0 is the no-effect control and ±100 the full control effect; nearly all actives have a fitted effect of over 45% in size; luciferase light after 4 h
# NS1 function inh: blocks influenza NS1 protein function | S. cerevisiae slowed by influenza A NS1, growth recovery by OD600 | AID 2326 | Potency, µM (highest dose often 46.1 µM), without a hit: at the highest dose activity, positive = more growth | 270,000 tested, 0.4% active; active means well fitted rising curve with a large enough effect; inconclusive means small, poorly fitted or top-dose-only effect; inactive means no such curve, though single readings can be large or run the other way; further: nearly all actives have a fitted effect of over 50% in size
#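 S. cerevisiae expressing influenza A NS1, grown in glucose, washed, then diluted 1:100 into pH 6.0 -URA galactose medium with 23 nl compound. Growth recovery read as OD600; NS1-free strain serves as control.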
# Cruzain noTriton: blocks cruzain activity in detergent-free assay; P25779; purified cruzain, Z-FR-AMC fluorescence, no detergent; Potency, µM, for inactives: max response, negative = inhibition, most hits filed as inhibitors; 200,000 tested, 2.3% active; AID 1476;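 further: plate controls were enzyme without inhibitor for no effect and buffer without enzyme for full effect; nearly all actives have a fitted effect of over 40% in size; top concentration of the series not given in the record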
#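 Purified cruzain at 1.5 nM, pre-incubated 15 min with compound at room temperature in 100 mM sodium acetate pH 5.5, 5 mM DTT, 0.00005% Triton X-100. Reaction started with 2 uM Z-FR-AMC; AMC fluorescence increase over 60 s gives rate.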
# RE007 growth inh: less growth of the S. pombe RE007 Vpr strain; S. pombe RE007 Vpr strain, BacTiter-Glo ATP luminescence, 24 h; control for the full effect not named in the record; AID 651644; Potency, µM (titrated, usually from 92.2 µM), inactives show top-dose activity change, negative = less growth; 360,000 tested, 0.21% active; active = well fitted falling curve with a large enough effect; inconclusive = small, poorly fitted or top-dose-only effect; inactive = no such curve, though single readings can be large or run the other way;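 further: on the % scale 0 is the no-effect control and ±100 the full control effect; nearly all actives have a fitted effect of over 50% in size; the assay follows cell death caused by Vpr and the record does not say whether a fall means rescue or toxicity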
#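 Fission yeast strain RE007, carrying one chromosomally integrated HIV-1 vpr copy, was seeded at OD 0.01 in PMG+AL medium with 23 nL pinned compound. After 24 h at 30 °C and 99% humidity, viability was read by BacTiter-Glo luminescence.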
# An asterisk follows results filed as active; u = inconclusive; x = no result given; & = joins results of further samples; ! = a repeat was not active; [ ] = dose if it differs, or a comment. Unless noted, the call rests on the fitted dose curve; in most records, active means well fitted curve in the direction sought with a large enough effect; inconclusive means small, poorly fitted or top-dose-only effect, or another doubt; inactive means no such curve, though single readings can be large; an effect the other way counts as inactive or inconclusive. Potency means the concentration at half of the fitted maximal effect.
SMILES,Cruzain inh Det,Lassa entry inh,SARS PLP yeast,MARV entry inh,StopGo reporter,NS1 function inh,Cruzain noTriton,RE007 growth inh
CC1CC(C)CN(CCCCOc2ccc([N+](=O)[O-])cc2)C1 (stereo not given),2.1%,3%,-12%,u,-29%,0%,-4%,x
CCCCCn1c(C(Cc2ccccc2)NC(C)=O)nc2ccccc21 (stereo not given),-3.8%,x,0%,x,0%,-5%,u,2%
CC1(C)Cc2c(c(-c3ccccc3)nc3sc4c(=O)[nH]c(=S)[nH]c4c23)CO1,x,1%,0%,-2%,-20%,-1%,x,-9%
NC(=O)CSc1nnc(COc2ccccc2)n1C1CCCCC1,-4.7%,-27%[14.3 µM],0%,u,4%,-4%,22%,-11%
Cc1ccc(NS(=O)(=O)c2coc(C(N)=O)c2)cc1F,x,x,3%,x,2%,1%,x,10%
Cc1cn(S(=O)(=O)c2ccc(Br)cc2)cn1,2.6%,2%,-2%,11%,-15%,1%,-7%,-4%
O=S(=O)(NC1CCCCC1N1CCCCC1)c1ccc(Cl)cc1 (stereo not given),x,x,5%,x,-6%,-10%,x,10%
C=CCC1(CC=C)CCCN1C(=O)CC1C(=O)NCCN1Cc1cccc(OC)c1 (stereo not given),x,-14%,0%,-2%[46.1 µM],-25%,0%,x,-10%
CC1(C)CC(=O)c2cnn(-c3nc4ccccc4[nH]3)c2C1,-4.1%,1%,-24%,-9%,0%,4%[9.22 µM],1%,-8%
O=C1CCCN1CCCNC(=S)Nc1ccccc1,x,8%,0%,-10%,1%,4%,x,0%
Cc1ccc(-c2nc3ccccc3nc2-c2ccccc2)cc1,x,u,-5%,-16%[46.1 µM],-20%,-5%,x,5%
CN(CC(=O)NCCC1=CCCCC1)S(=O)(=O)c1ccc2c(c1)CCC(=O)N2,1.3%,x,2%,0%,-12%,-4%,17%,-3%
O=C(CNC(=O)c1ccc(F)cc1)N/N=C/c1ccc(O)c([N+](=O)[O-])c1,-7.4%,0%,-2%,3%,-11%,-7%,3%,3%
O=C(N/N=C\c1ccc(CNS(=O)(=O)c2ccc(Cl)cc2)o1)C(=O)Nc1ccc(Oc2ccccc2)cc1,-0.8%,u,3%,u,3%,17%,7.9µM*,2%
Cc1cccc(NC(=O)CNC(=O)COc2cc(F)ccc2[N+](=O)[O-])c1C,x,-1%,2%,-1%[46.1 µM],0%,1%,x,-5%
CCOC(=O)c1cc(C#N)c(N2CCCNCC2)nc1C(F)(F)F,x,x,0%,x,-9%,4%,x,6%
O=C(Cc1cccs1)N/N=C/C=C\c1ccco1,-9.1%,u,9%,10%[46.1 µM],64%[activator],8%,-14%,-1%
O=C(O)CC(CC(=O)Nc1ccc(-c2ccccc2)cc1)c1ccccc1 (stereo not given),x,x,1%,x,-12%,5%,x,12%
CCOc1ccccc1NC(=O)C1CCC(=O)N1S(=O)(=O)c1ccc(C)cc1 (stereo not given),x,0%,-5%,19%,6%,-14%,x,6%
CC(C)n1c(=N)c(C(=O)NC2CCCCC2)cc2c(=O)n3ccccc3nc21,-2.8%,-3%[46.1 µM],x,-8%[46.1 µM],-14%,x,10%,x
Cc1ccc(NC(=O)C2CCN(S(=O)(=O)c3c(C)noc3C)CC2)cc1C,-3.1%,5%,1%,-32%,6%&-26%,x,-4%,23%
Cc1cc2n(n1)C(c1ccccc1)Nc1ccccc1-2 (stereo not given),-1.7%,u,-5%,3%,5%,-9%,1%,-8%
CCCc1cc(=O)[nH]c(SCC(=O)N2CCN(c3ccc(F)cc3)CC2)n1,1.3%,0%,1%,-10%,-5%,0%,-6%,-1%
O=C(NCCCn1ccnc1)C(=O)NCC1OCCN1S(=O)(=O)c1ccc2c(c1)OCCO2 (stereo not given),x,0%,0%,19%[46.1 µM],-4%,-3%,x,-7%
C=CCN1C(=O)CSc2ccc(C(=O)NCc3cccs3)cc21,x,u,0%,u,-8%,x,x,-5%
COc1ccc(NC(=O)c2oc3ccc(S(=O)(=O)N4CCC5(CC4)OCCO5)cc3c2C)cc1,4.5%,u,-2%,21µM*!,13µM*,11µM*,u,14%
Cc1cccc(NC(=O)CNC(=O)c2sc3ccccc3c2Cl)n1,x,19%,-6%,-18%[46.1 µM],25%,x,x,-13%
CC(C)c1nc(N2CCOCC2)c(C#N)c2c1CCC2,-2.6%,0%,-1%,3%&3%,-14%,-13%,8%,-12%
Fc1ccc(CNc2nc(-c3ccccc3)cc(C(F)(F)F)n2)cc1,0.6%,0%[46.1 µM],x,-16%[46.1 µM],-28%,x,6%,x
Cc1ccc(C(C)C)c(OCC(=O)Nc2ccc(-c3nc4ncccc4o3)cc2C)c1,-1.0%,3%[46.1 µM],x,-9%[46.1 µM],-16%,x,0%,x
Cc1ccc(NS(=O)(=O)c2ccc3c(c2)CC(=O)N3)cc1C,x,x,2%,x,20%,u,x,-18%
COc1cc(OC)cc(C(=O)N[C@H](C(=O)OCC(=O)Nc2ccc(F)c(F)c2F)C(C)C)c1,x,6%,-4%,-19%,2%,x,x,0%
O=C(O)c1ccc(CSc2nnc(-c3ccccc3Br)o2)cc1,x,x,3%,x,-3%,-30%,x,-10%
O=C(Cn1cncn1)N/N=C/c1cccnc1,x,17%,1%,-7%,-10%,1%,x,2%
Cc1ccccc1Cn1nnc2c(=O)[nH]c(C3CCN(C(=O)c4ccc(F)cc4)CC3)nc21,-3.9%,-22%[46.1 µM],x,9%[46.1 µM],-16%,x,u,x
Nc1ccc2c(c1)C(=O)N(c1cccc3ccccc13)C2=O,x,0%,-1%,-15%,-18%,-20%,x,6%
COC(=O)C(NNc1ccccc1)(NC(=O)c1ccc(F)cc1)C(F)(F)F (stereo not given),-6.9%,10%,-2%,-2%,-20%,-5%,3%,12%
COc1ccc(S(=O)(=O)N(CCCN2CCOCC2)Cc2ccc(OC)c(OC)c2)cc1,1.1%,-27%,-3%,0%&0%,-9%,2%,4%,-3%
Cc1ccccc1NC(=O)CC1SCCNC1=O (stereo not given),1.5%,-19%,4%,14%,-11%,0%,-8%,-22%
O=c1c2ccccc2nnn1Cc1ccccc1,x,x,-2%,x,5%,-4%,x,-6%
CCc1nnc(NC(=O)CS(=O)(=O)Cc2ccccc2)s1,x,-4%,1%,18%[46.1 µM],-2%,-8%,x,4%
N#CCNC1CC(=O)N(c2ccccc2)C1=O (stereo not given),x,x,1%,x,0%,29%,x,7%
O=C(c1ccccc1F)N1c2ncnn2C2(CCCCC2)[C@@H]2CCCC[C@@H]21,-2.5%,14%[46.1 µM],x,u,u,x,8%,x
COc1cc(OC)c(N(C)S(=O)(=O)c2cccc(C(=O)Nc3nnc(C4CC4)s3)c2)cc1Cl,x,x,-1%,x,-18%,-4%,x,-2%
O=C(C1=C(O)C(=O)N(Cc2ccco2)C1c1ccccc1)c1cccs1 (stereo not given),-6.3%,19%,-25%,-6%,83%[activator],-10%,-2%,-9%
CC(C)(C)c1ccc(/C=N/NC(=S)NC2CCCCC2)cc1,-7.4%,u,20µM*,u,0%,-1%,-14%,-10%
Cc1cccc(C(C)(C)C)c1OCCCCN1CCCC1,3.6%,u,-2%,u,0%,-5%,-5%,3%
CCCCn1c(CN2CCN(c3cccc(Cl)c3)CC2)nc2c1c(=O)[nH]c(=O)n2C,-23%,u,14%,1.3µM*,-9%,-50%,u,9%
O=C(NCCCN1CCOCC1)c1ccc2c(=O)n(Cc3ccccc3)c(=S)[nH]c2c1,x,-13%[46.1 µM],-3%,u,29%,5%,x,-7%
N/C(=N\S(=O)(=O)c1cccs1)c1ccccc1Cl,x,x,0%,x,-5%,-4%,x,2%

# (listing goes on)
SMILES,Cruzain inh Det,Lassa entry inh,SARS PLP yeast,MARV entry inh,StopGo reporter,NS1 function inh,Cruzain noTriton,RE007 growth inh
COc1ccc(C(CCN(Cc2ccc(OC)c(OC)c2)C(=O)CCl)c2ccccc2)cc1 (stereo not given),-7.8%,10µM*,6%,u,32µM*,-11%,19%,x
CC(/C=C/c1cccs1)=C\C(=O)O,-3.4%,0%,-22%,2%,u,-39%,5%,-14%
Cc1ccc(C)c(NC(=O)CS(=O)(=O)c2cn(C)c3ccccc23)c1,-0.2%,6%,-12%,-6%,x,-8%,5%,2%
Cn1c(=O)n(CC(=O)OCc2ccccc2)c(=O)c2c1nc1n2CCCN1C1CCCCC1,x,u,x,u,28µM*,-52%,x,2%
COc1cc(/C=N/NC(=O)CSc2nc3ccccc3n2C)cc(OC)c1OC,-4.0%,-9%,7%,19%,u,6%,5%,1%
CC(/C=N/NC(=O)c1nnn(-c2nonc2N)c1C(C)C)=C\c1ccccc1,x,x,-3%,x,16%,2%,x,-14%
COc1cccc(-n2c(=O)c3cc(OC)c(OC)cc3n(CC(=O)Nc3ccccc3)c2=O)c1,0.8%,11%[46.1 µM],x,7%[46.1 µM],11%,x,-11%,x
CC[N+](C)(CC)CCC(c1ccccc1)C1CCCCC1 (stereo not given),x,u,-2%,-4%[46.1 µM],-5%,3%,x,-21%
CC1(C)Cc2ccccc2-c2nnc(-c3cccc(O)c3)n21,3.1%,-19%,2%,-1%,-12%,-2%,0%,25%
O=C(Cn1ncc2c3ccccc3n(Cc3ccccc3F)c2c1=O)NCc1ccccc1Cl,-1.0%,4%[46.1 µM],x,17%[46.1 µM],-3%,x,-3%,x
Cc1ccc(NS(=O)(=O)c2ccc(Cl)c(C(=O)Nc3cccc(C(=O)O)c3)c2)cc1,x,x,-3%,x,-1%,u,x,-19%
CN(C)S(=O)(=O)c1ccc(S(=O)(=O)N(CC(=O)Nc2ccccc2)CC2CCCO2)cc1 (stereo not given),-3.3%,-14%,3%,13%[46.1 µM],-29%,0%,19%,1%
Cn1c(=O)c2c(ncn2CCCc2ccccc2)n(C)c1=O,1.2%,1%,12%,14%,-6%,-3%,-2%,-9%
O=C(Nc1ccc(C(=O)O)cc1)/C(=C\C=C\c1ccccc1)NC(=O)c1cccc(Br)c1,x,3%,1%,-3%[46.1 µM],-10%,22%,x,-25%
COc1ccccc1NS(=O)(=O)c1cc(NC(=O)c2cnccn2)ccc1N1CCOCC1,x,x,0%,x,24%,2%,x,-10%
Cc1ccc(F)cc1NC(=O)Cn1c(C)cc(C)c(C#N)c1=O,-4.4%,13%[46.1 µM],x,x,-11%,x,10%,x

# Compound activity as filed in PubChem.
